TRb-SRC2 inh – qHTS for Inhibitors of the Interaction of Thyroid Hormone Receptor and Steroid Receptor Coregulator 2; 0.065% of 280,000 active; TRbeta-SRC2 peptide binding, fluorescence polarization; receptor liganded with 1 µM T3; Potency, µM (series often up to 106 µM), for inactives: at the top dose activity change, negative = inhibition, actives largely listed as inhibitors; Thyroid hormone receptor beta (Homo sapiens), P10828;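 note: plate controls were bound peptide for no effect and peptide without receptor for full effect; nearly all actives have a fitted effect of over 50% in size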
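Quantitative HTS by FP: 0.6 uM TRb LBD, 20 nM labeled SRC2 20-mer, 1 uM T3, 5% DMSO; 5 hr ambient incubation; % activity per concentration and potencies from concentration series.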
L3MBTL1 inh – qHTS Assay for the Inhibitors of L3MBTL1. Lethal(3)malignant brain tumor-like protein 1 (Homo sapiens), Q9Y468. AlphaScreen L3MBTL1–H3K9me1 peptide binding. Potency, µM (doses to about 57.1 µM), for inactives: at the top dose activity, negative = inhibition, usual class: inhibitors. 0.66% of 230,000 active. AID 485360, 2010; note: nearly all actives have a fitted effect of over 60% in size
Target sequence (Q9Y468 whole entry, looked up): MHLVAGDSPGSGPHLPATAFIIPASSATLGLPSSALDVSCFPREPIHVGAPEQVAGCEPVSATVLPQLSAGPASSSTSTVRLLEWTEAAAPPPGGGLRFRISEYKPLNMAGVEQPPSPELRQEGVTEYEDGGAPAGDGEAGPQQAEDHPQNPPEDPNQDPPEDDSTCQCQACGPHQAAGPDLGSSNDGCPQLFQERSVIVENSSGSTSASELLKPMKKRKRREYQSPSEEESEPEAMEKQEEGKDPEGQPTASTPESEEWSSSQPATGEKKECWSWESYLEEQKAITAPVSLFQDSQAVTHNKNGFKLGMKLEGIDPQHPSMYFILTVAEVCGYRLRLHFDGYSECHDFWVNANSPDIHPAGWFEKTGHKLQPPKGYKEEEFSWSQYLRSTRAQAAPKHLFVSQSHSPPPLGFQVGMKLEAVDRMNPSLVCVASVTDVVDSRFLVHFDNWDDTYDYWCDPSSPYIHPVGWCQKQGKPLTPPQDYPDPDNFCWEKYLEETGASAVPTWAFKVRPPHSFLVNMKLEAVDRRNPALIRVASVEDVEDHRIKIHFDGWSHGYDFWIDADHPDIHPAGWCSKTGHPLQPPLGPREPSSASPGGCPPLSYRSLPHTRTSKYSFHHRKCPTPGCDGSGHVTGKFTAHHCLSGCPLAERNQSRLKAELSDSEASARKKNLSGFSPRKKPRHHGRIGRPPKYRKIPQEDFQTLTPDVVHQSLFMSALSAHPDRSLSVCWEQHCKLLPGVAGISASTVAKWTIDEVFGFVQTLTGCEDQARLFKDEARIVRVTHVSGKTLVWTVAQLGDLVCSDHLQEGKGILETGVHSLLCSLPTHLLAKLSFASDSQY
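Read-out is AlphaScreen signal from streptavidin donor and nickel chelate acceptor beads (10 ug/mL final each) bridging L3MBTL1 (50 nM) and biotinylated K9-monomethylated H3(1-15) peptide (75 nM), after 30 min compound exposure at room temperature.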
GAA inh – qHTS Assay for Inhibitors of Human alpha-Glucosidase as a Potential Chaperone Treatment of Pompe Disease; AID 1466, 2008; purified human GAA, 4-MU-alpha-glucoside fluorescence; Potency, µM (series often up to 76.9 µM), for the others: top-dose activity change, negative = inhibition, actives largely listed as inhibitors; 0.005% of 200,000 active;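 note: plate controls were uninhibited enzyme wells for no effect and no-enzyme background for full effect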
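Human alpha-glucosidase, 4 nM, pre-mixed with test compounds before 400 uM 4-methylumbelliferyl substrate; 20 min room temperature at pH 5.0. Fluorescence read after pH 10 stop; AC50 values from Hill-equation fits.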
GAA spleen mod – qHTS Assay for Inhibitors and Activators of Human alpha-Glucosidase From Spleen Homogenate. Lysosomal alpha-glucosidase (Homo sapiens), P10253. human spleen homogenate, 4-MU-alpha-glucoside fluorescence. 0.006% of 240,000 active. Potency, µM (highest dose often 79.9 µM), without a hit: at the highest dose activity change, negative = inhibition, usual class: inhibitors;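 note: 0% = enzyme with vehicle and -100% = no enzyme basal signal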
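Human spleen homogenate (1 ug) with 4-methylumbelliferyl-alpha-D-glucopyranoside (1 mM final) in 50 mM citrate/phosphate pH 5.0, 0.01% Tween-20; 40 min at 37 C. Stopped at pH 10; 4-MU fluorescence Ex 365/Em 440 nm; AC50 by Hill fit.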
RECQ1 helicase – qHTS Assay for Inhibitors of RecQ-Like Dna Helicase 1 (RECQ1). ATP-dependent DNA helicase Q1 (Homo sapiens), P46063. RECQ1 DNA unwinding, red fluorescence kinetic read. Potency, µM (highest dose often 57.3 µM), without a hit: at the highest dose activity, negative = inhibition, hits mostly inhibitors. 0.54% of 240,000 active. AID 2549, 2010;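 note: plate controls were vehicle for no effect and no enzyme for full effect; nearly all actives have a fitted effect of over 30% in size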
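RECQ1T1 50 nM; forked duplex (20 bp + 30-nt ss tails) 200 nM, ATP 2 mM final; pH 8.0, 2 mM MgCl2, 2.5 ug/ml poly(dI-dC); 15 min compound preincubation; discontinuous kinetic read over 2 h at RT.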
GAA glycogen mod – qHTS Assay for Inhibitors and Activators of Human alpha-Glucosidase Cleavage of Glycogen; Lysosomal alpha-glucosidase (Homo sapiens), P10253; 0.38% of 300,000 active; AID 2100, 2009; recombinant GAA, glycogen substrate, Amplex Red glucose oxidase fluorescence; Potency, µM (doses to about 76.4 µM), inactives show at the top dose activity change, negative = inhibition, most hits filed as inhibitors;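 note: 0% = full enzyme reaction and -100% = no-enzyme basal signal; the screen sought inhibitors and activators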
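Natural-substrate format: glycogen cleavage by 4 nM human enzyme, glucose read by Amplex Red coupling (Ex 573, Em 610 nm). Normalized to enzyme and no-enzyme controls.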
TexasRed fluor – Total Fluorescence Counterscreen for Inhibitors of the Interaction of Thyroid Hormone Receptor and Steroid Receptor Coregulator 2 | 0.29% of 280,000 active | TRb/SRC2 Texas Red total fluorescence interference | Potency, µM (doses to about 106 µM), without a hit: at the highest dose fluorescence change, negative = quenching | AID 1479, 2009; active = well fitted curve in either direction with a large enough effect; inconclusive = small, poorly fitted or top-dose-only effect
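Human TRb ligand-binding domain at 0.6 uM with 20 nM Texas Red SRC2 peptide in Tris buffer containing 1 uM T3 and 5% DMSO, incubated with compound 5 h at ambient temperature. Total fluorescence (555/632 nm) calculated as parallel + 2 × perpendicular.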
* marks the source's active call; other numbers are inactive results; i = inactive; ? = inconclusive; . = not tested or not shown; [ ] = dose if it differs, or a comment. Unless noted, calls come from the whole dose curve; as a rule, active = well fitted curve in the direction sought with a large enough effect; inconclusive = small, poorly fitted or top-dose-only effect, or another doubt; inactive = no such curve, though single readings can be large; an effect the other way counts as inactive or inconclusive. Unless noted, % is set by controls: 0 for no effect and ±100 for the full control effect; potency is the fitted concentration of half-maximal effect. An excerpt (hit frequency here may not be typical).

Molecule | TRb-SRC2 inh | L3MBTL1 inh | GAA inh | GAA spleen mod | RECQ1 helicase | GAA glycogen mod | TexasRed fluor
CCC(C)NC(=O)CSc1nnc(-c2ccc(Cl)cc2)n1N (stereo unspecified) | 1% | 15% | -5% | -1% | -5% | -1% | -1%
CC(=O)Nc1cccc(C(=O)OCC(=O)NC(C)c2ccc(F)cc2)c1 (stereo unspecified) | 6% | -17% | 1% | 1% | -3% | 5% | -6%
Cc1cccc(COCC(Cc2ccccc2)N2CCN(C(=O)c3cc(Cl)cc(Cl)c3)CCC2=O)c1 (stereo unspecified) | -1% | -2% | ? | -8% | -12% | -14% | 4%
CC1CC(C)CN(c2nc(NCc3ccco3)nc(N)c2[N+](=O)[O-])C1 (stereo unspecified) | -4% | -14% | 9% | 0% | -13% | 0% | -4%
C/C(=C\C(=O)c1ccc(Br)cc1)NCc1ccccc1 | -5% | . | 0% | 3% | i | 14% | -2%
CCc1nn(C)c2c(=O)c(=O)c2n(C)[nH]1 | 2% | . | . | -14% | -14% | 3% | 1%
O=C(c1ccc(Cl)c(Cl)c1)N1CCC(=O)N(C(COCc2ccc(Cl)cc2)Cc2ccccc2)CC1 (stereo unspecified) | -4% | -7% | -2%[15.4 µM] | -2% | -13% | -7% | -1%
CCOC(=O)c1ccc(S(=O)(=O)N2CCN(C(=O)c3cc(=O)c4ccccc4o3)CC2)cc1 | 0% | 4% | -6% | -1% | i | -9% | -1%
CCC(C)C(NC(N)=O)C(=O)Nc1ccc(C)c(Cl)c1 (stereo unspecified) | -7% | 3% | 12% | -4% | i | -6% | -1%
N#Cc1ccc(C2=NC(C(F)(F)F)(C(F)(F)F)c3c(n(Cc4ccco4)c(=O)[nH]c3=O)N2)cc1 | 2% | -11% | -3% | -4% | -7% | -1% | -4%
COc1cccc(OC)c1C(=O)NC(=S)Nc1ccc2c(c1)Cc1ccccc1-2 | -5% | . | -8% | 1% | -9% | 0% | -1%
C=CCn1c(NC(=O)c2ccc(C)cc2)c(C#N)sc1=N | -11% | 3% | -7% | 0% | i | 12% | -3%

Reformatted with values under each structure: part of the list above.
Second line of a record – TRb-SRC2 inh | L3MBTL1 inh | GAA inh | GAA spleen mod | RECQ1 helicase | GAA glycogen mod | TexasRed fluor
> CC(=O)Nc1cccc(C(=O)OCC(=O)NC(C)c2ccc(F)cc2)c1 (stereo unspecified)
→ 6% | -17% | 1% | 1% | -3% | 5% | -6%
> O=C(c1ccc(Cl)c(Cl)c1)N1CCC(=O)N(C(COCc2ccc(Cl)cc2)Cc2ccccc2)CC1 (stereo unspecified)
→ -4% | -7% | -2%[15.4 µM] | -2% | -13% | -7% | -1%
> CCOC(=O)c1ccc(S(=O)(=O)N2CCN(C(=O)c3cc(=O)c4ccccc4o3)CC2)cc1
→ 0% | 4% | -6% | -1% | i | -9% | -1%

Back to the main list with the two entries that preceded the break.
Molecule | TRb-SRC2 inh | L3MBTL1 inh | GAA inh | GAA spleen mod | RECQ1 helicase | GAA glycogen mod | TexasRed fluor
COc1cccc(OC)c1C(=O)NC(=S)Nc1ccc2c(c1)Cc1ccccc1-2 | -5% | . | -8% | 1% | -9% | 0% | -1%
C=CCn1c(NC(=O)c2ccc(C)cc2)c(C#N)sc1=N | -11% | 3% | -7% | 0% | i | 12% | -3%
O=C(CSc1nnc(COc2ccc(Cl)cc2)o1)N1CCOCC1 | -11% | . | -7% | -3% | i | 10% | -2%
CCOc1cc(C(=O)N(C)Cc2cc3cc(OC)ccc3[nH]c2=O)cc(OCC)c1OCC | -4% | 7% | -9% | -7% | -1% | 2% | 0%
Cc1ccc(S(=O)(=O)N2CCOCC2)cc1NC(=O)COC(=O)c1cc(=O)c2ccccc2o1 | -10%[53 µM] | 5% | -2% | -2% | 2% | -4% | -2%[53 µM]
Cn1c2ccccc2c2cc(/C=C(\NC(=O)c3ccccc3)C(=O)NCC(=O)O)ccc21 | 3% | 2% | . | 1% | -4% | -10% | -3%
CCn1c(CCNC(=O)c2ccc(Cl)c(Cl)c2)nnc1SCCOc1ccc(OC)cc1 | 6% | -3% | -10% | 2% | -15% | -5% | -1%
O=c1c2c3nc4ccccc4nc3n(/N=C/c3ccncc3)c2ncn1-c1ccccc1 | -1% | 2% | . | -2% | -19% | -2% | -3%
CCn1c(COc2ccc(C)cc2)nnc1SCC(=O)NCc1ccco1 | 3% | -8% | -5% | 4% | 3% | 3% | 0%
c1ccc2c(c1)CCCN2Cc1nnc2n1CCCCC2 | 6% | 4% | 2% | -7% | -1% | -27% | -3%

3 entries from above, reformatted:
Below each compound – TRb-SRC2 inh	L3MBTL1 inh	GAA inh	GAA spleen mod	RECQ1 helicase	GAA glycogen mod	TexasRed fluor
O=C(CSc1nnc(COc2ccc(Cl)cc2)o1)N1CCOCC1
    -11%	.	-7%	-3%	i	10%	-2%
CCOc1cc(C(=O)N(C)Cc2cc3cc(OC)ccc3[nH]c2=O)cc(OCC)c1OCC
    -4%	7%	-9%	-7%	-1%	2%	0%
Cc1ccc(S(=O)(=O)N2CCOCC2)cc1NC(=O)COC(=O)c1cc(=O)c2ccccc2o1
    -10%[53 µM]	5%	-2%	-2%	2%	-4%	-2%[53 µM]

Screening data deposited in PubChem BioAssay by National Center for Advancing Translational Sciences (NCATS).
